# TRPML1 inh – blocks the human TRPML1 channel; Q9GZU1; TRPML1-inducible cells, Ca2+ dye fluorescence, FDSS; hits give low values; inhibition of EC80 agonist-evoked calcium signal; activity change, negative = inhibition, % (test concentration not listed); 0.02% of 390,000 active; AID 624415; in the data active means activity change below about -50%; inconclusive means about -30% to -50%; inactive means above about -30%;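 note: stimulus is agonist 54-4 at its EC80 concentration; % is set by controls: 0 for no effect and ±100 for the full control effect; compound concentration not given in the record; the text of the record puts the active cut at -80%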
# Target sequence (Q9GZU1 whole entry, looked up): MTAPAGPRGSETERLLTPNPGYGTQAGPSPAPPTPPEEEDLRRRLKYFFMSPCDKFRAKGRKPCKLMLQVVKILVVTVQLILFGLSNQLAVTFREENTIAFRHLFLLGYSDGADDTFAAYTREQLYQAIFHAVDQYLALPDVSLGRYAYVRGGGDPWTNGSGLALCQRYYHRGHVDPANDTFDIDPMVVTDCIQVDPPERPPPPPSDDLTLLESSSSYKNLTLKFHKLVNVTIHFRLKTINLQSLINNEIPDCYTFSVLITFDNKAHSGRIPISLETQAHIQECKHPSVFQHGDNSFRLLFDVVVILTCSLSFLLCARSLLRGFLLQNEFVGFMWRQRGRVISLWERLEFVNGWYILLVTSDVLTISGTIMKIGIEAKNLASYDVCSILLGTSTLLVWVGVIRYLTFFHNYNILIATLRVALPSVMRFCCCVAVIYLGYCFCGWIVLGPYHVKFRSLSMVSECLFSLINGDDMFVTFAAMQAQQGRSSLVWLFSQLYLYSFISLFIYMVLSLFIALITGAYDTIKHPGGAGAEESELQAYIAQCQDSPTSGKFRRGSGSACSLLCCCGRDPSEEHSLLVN
#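 Calcium fluorescence in TRPML1-DL cells induced overnight with Tet: a 110 s read after compound pin addition, then a 110 s antagonist read after challenge with 54-4 at 4 uM final (EC80).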
# PINK1 expr mod – changes PINK1 expression | PINK1 immunofluorescence, high-content cytometry, 24 h | Potency, µM (titrated, usually from 76.6 µM), for the others: at the highest dose activation (PINK1 increase), hits mostly activators | 0.2% of 410,000 active; active = well fitted activation curve with a large enough effect; inconclusive = small, poorly fitted or top-dose-only effect; inactive = flat fitted curve, though single readings scatter; cell line not stated here;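 note: potency is the fitted concentration of half-maximal effect; % of control where 0% means no effect; nearly all actives have a fitted effect of over 65% in size; a mitochondrial uncoupler was the plate control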
#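 Compound titrations (5 concentrations, 24 h) on a stable cell line; DMSO and CCCP controls. Endpoint: fixed-cell PINK1 immunofluorescence with mitochondrial, cell and nuclear markers, scanned by microplate cytometer.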
# D2 agonist – agonists of human D2 dopamine receptor (beta-arrestin); activation, % (concentration not given with the values); DiscoveRx PathHunter D2 beta-arrestin, luminescence, 90 min; 100% = 57 uM dopamine signal; AID 624465; 0.084% of 360,000 active; P14416; in the data active = activation above about 40%; inconclusive = about 15% to 40%; inactive = below about 15%; note: compound concentration not given in the record; the text of the record calls up to 30% inactive
# Target sequence (P14416 whole entry, looked up): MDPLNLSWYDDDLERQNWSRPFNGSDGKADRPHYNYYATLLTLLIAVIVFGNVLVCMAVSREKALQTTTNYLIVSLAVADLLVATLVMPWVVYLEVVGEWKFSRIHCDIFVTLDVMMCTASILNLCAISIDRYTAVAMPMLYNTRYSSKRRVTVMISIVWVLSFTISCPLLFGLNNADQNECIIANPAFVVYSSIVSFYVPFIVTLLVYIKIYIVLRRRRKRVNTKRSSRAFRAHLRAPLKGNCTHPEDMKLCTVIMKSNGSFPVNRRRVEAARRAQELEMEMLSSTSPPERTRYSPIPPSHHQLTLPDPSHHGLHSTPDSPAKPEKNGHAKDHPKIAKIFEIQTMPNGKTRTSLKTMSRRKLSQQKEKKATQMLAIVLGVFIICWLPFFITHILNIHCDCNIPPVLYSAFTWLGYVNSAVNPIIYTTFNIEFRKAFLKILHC
#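 Agonist mode: compounds alone added to overnight-plated D2 PathHunter cells for 90 min at 37 C, with 57 uM final dopamine (EC100) defining full response. Beta-arrestin recruitment detected by chemiluminescent reagent, read after 1 h at ambient temperature.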
# TRPML1 agonist – agonists of human TRPML1 channel; Q9GZU1; TRPML1-expressing cells, Ca2+ dye fluorescence, FDSS; host cell line not named in the record; reference of the full effect not given here; activation, % (concentration not given with the values); 0.12% of 410,000 active; in the data active = activation above about 50%; inconclusive = about 30% to 50%; inactive = below about 30%; note: 0% is about no effect; the text of the record puts the active cut at 80%
#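 Agonist activity was taken from a 110 s kinetic Ca2+ dye read on the FDSS after pinning compounds onto TRPML1-DL cells. The cells were seeded at 1,500/well with Tet inducer, incubated about 16 h, then dye-loaded at room temperature.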
# CtBP-E1A inh – blocks the CtBP interaction with E1A; AlphaScreen GST-E1A/His-CtBP binding, 1536-well; hits give low values; control for the full effect not named in the record; activity change, % (test concentration not listed); 0.49% of 340,000 active; AID 651724; in the data active means activity change below about -65%; inconclusive means about -30% to -65%; inactive means above about -30%; note: % is set by controls: 0 for no effect and ±100 for the full control effect; compound concentration not given in the record
#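 Steps: dispense buffer (Tris pH 8.0, NaCl 300 mM, TCEP 1 mM, BSA, Tween 20); add 5X protein mix (GST-E1A, His-CtBP, 125 nM each); pin 23 nL compound; 2 h at 37 °C, dark; add 5X beads (50 ug/mL); 1 h; read.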
# Six1-Eya2 blk – inhibitors of human Six1/Eya2 interaction; Q15475+O00167; activity change, % (no concentration beside the values); AID 651725; 0.56% of 360,000 active; AlphaScreen GST-Six1/His-Eya2 binding, biochemical; hits give low values; control for the full effect not named in the record; in the data active = activity change below about -65%; inconclusive = about -30% to -65%; inactive = above about -30%; note: % is set by controls: 0 for no effect and ±100 for the full control effect; compound concentration not given in the record
#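 GST-Six1 + His-Eya2 (5X stock: 250/500 nM); Tris pH 8.0, 300 mM NaCl, 0.05% BSA, 0.02% Tween 20; GSH donor/Ni acceptor beads; 1 h 37 °C dark; AlphaScreen readout.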
# Starred values were filed as active, the others as inactive; ? = inconclusive; . = not tested or not shown; [ ] = dose if it differs, or a comment.
SMILES,TRPML1 inh,PINK1 expr mod,D2 agonist,TRPML1 agonist,CtBP-E1A inh,Six1-Eya2 blk
Cn1ncc2c(Nc3cc(Cl)cc(Cl)c3)ncnc21,-12,9.3%,-1.1,1.8,.,0
COc1ccc(NC(=O)CC2C(=O)N(c3ccc(C)cc3)C(=O)N2C2CCCC2)cc1 (stereo unspecified),-3,1.3%,.,1.0,.,.
O=C(NCCCN1CCOCC1)c1sc2cc([N+](=O)[O-])ccc2c1Cl,5,0.6%,4.6,-0.5,-4,-7
CNS(=O)(=O)c1cc(C(=O)O)ccc1OC,-17,-0.8%,1.0,0.5,13,8
CC(C)CCNC(=O)c1ccc2c(c1)ncn2C1CCCCC1,-10,-2.3%[38.3 µM],0.0,-0.5,5,0
COc1ccc(C(=O)Nc2ccccc2-c2nc3ccccc3s2)cc1OC,12,1.8%,.,-0.7,.,.
C=CCn1c(SCC(=O)N(CC)C2CCS(=O)(=O)C2)nnc1-c1ccccc1 (stereo unspecified),4,0.6%,0.9,-0.7,7,4
O=C(COC(=O)c1ccccc1NC(=O)c1ccco1)NCc1ccc2c(c1)OCO2,-25,6.0%,-0.2,0.3,-5,-7
Cc1ccc(C(=O)CN(C(=O)c2ccc(Cl)c(Cl)c2)N2C(=O)C3CCCCC3C2=O)cc1 (stereo unspecified),39,7.6%[38.3 µM],-0.4,0.5,2,5
COC(=O)c1cccc(COC(=O)c2cccnc2SC)c1,4,-1.6%,-2.4,4.1,13,42
Cc1cc(=O)c2cc(C(=O)Nc3cccc(C)c3C)ccc2[nH]1,-6,0.6%,.,-0.5,.,.
O=C1NC2c3c(Cl)sc(Cl)c3C(=O)C2O1 (stereo unspecified),-6,-2.0%,0.3,1.0,-2,-4
CN(C)/C=C/C(=O)C(F)(F)F,10,1.3%,-3.6,1.0,-7,3
Cc1cc(=O)n2nc(N3CCCC(C(=O)NCc4ccccc4Cl)C3)sc2n1 (stereo unspecified),-5,-1.1%,-5.6,-1.1,-8,-4
Cc1cccc(C(=O)O/N=C(\c2ccccc2)c2cccnc2)c1,11,1.8%,3.8,1.6,-13,0
Cc1cc(Cl)ccc1OCCCC(=O)N1CCN(S(=O)(=O)c2ccccc2)CC1,11,-1.1%,3.9,2.0,2,7
CC(Sc1nnc(Cc2cccs2)n1C1CC1)C(=O)NC1CCS(=O)(=O)C1 (stereo unspecified),-4,-1.4%,-6.6,-0.6,-11,5
O=C(Nc1ccccc1F)C1CCCN(S(=O)(=O)c2ccccc2)C1 (stereo unspecified),3,-0.1%,0.8,0.3,2,-2
N#Cc1c2n(c3c(=O)n(Cc4ccccc4)cnc13)CCCC2,4,0.6%[38.3 µM],0.0,0.2,-5,-1
O=[N+]([O-])c1ccccc1OC/C(=N\O)c1ccccc1,-10,8.1%,0.9,0.5,5,-6

# Random excerpt: three records from the list, in no set order.
SMILES,TRPML1 inh,PINK1 expr mod,D2 agonist,TRPML1 agonist,CtBP-E1A inh,Six1-Eya2 blk
Cc1cccc(C(=O)O/N=C(\c2ccccc2)c2cccnc2)c1,11,1.8%,3.8,1.6,-13,0
COc1ccc(NC(=O)CC2C(=O)N(c3ccc(C)cc3)C(=O)N2C2CCCC2)cc1 (stereo unspecified),-3,1.3%,.,1.0,.,.
Cc1cc(=O)c2cc(C(=O)Nc3cccc(C)c3C)ccc2[nH]1,-6,0.6%,.,-0.5,.,.

# (continued)
SMILES,TRPML1 inh,PINK1 expr mod,D2 agonist,TRPML1 agonist,CtBP-E1A inh,Six1-Eya2 blk
O=C(NC1CCCC1)C(c1ccccn1)N(C(=O)c1csnn1)c1ccccc1F (stereo unspecified),8,0.9%,6.1,0.5,0,8
CCOc1ccc(S(=O)(=O)N2CCC(C(=O)NCc3ccccn3)CC2)cc1C,35,0.2%,-4.5,0.7,6,3
Cc1cccc(C)c1NC(=O)CNC(=O)c1c(-c2ccccc2)noc1C,31,2.5%,-3.4,-0.6,.,6
COc1ccc(OCCNC(=O)C(c2ccccc2)c2ccccc2)cc1,23,-1.8%,-0.9,-1.3,-2,-2
CC(C)=CCC[C@H](C)CC1Cc2[nH]c(=S)[nH]c(=O)c2C(c2ccc(F)cc2)O1 (stereo partly specified),-7,?,-0.2,0.1,-3,-6
COc1ccc(NC(=O)Nc2nc(C(N)C3CCCCC3)cs2)cc1 (stereo unspecified),.,-1.1%,6.9,-0.1,-3,-9
COC(=O)CNC(=O)c1sc2ncn(CC(=O)Nc3ccc(C)c(Cl)c3)c(=O)c2c1C,-5,-0.3%,-1.0,0.0,-3,-13
CCCC(=O)Nc1sc2c(c1C#N)CCCC2,-16,4.1%,-3.8,0.0,-1,-6
COc1ccc(-c2cn3c(n2)sc2cc(C(=O)NCCC4=CCCCC4)ccc23)cc1,7,-0.1%,.,-0.2,.,.
CCOC(=O)c1ccccc1NC(=O)COC(=O)c1c(CC)noc1C,-9,0.1%,1.8,2.8,3,11
CS(=O)(=O)c1ccc(N2CCN(C3CC(=O)NC3=O)CC2)cc1 (stereo unspecified),-1,0.8%,-1.5,0.7,-1,10
O=CNc1cc(-c2ccc(C(=O)N3CCOCC3)cc2)cn2c(-c3ccc(F)cc3)cnc12,-8,0.7%,-1.1,-0.4,?,-4
CC1CCN(C(=O)COC(=O)c2n[nH]c(=O)c3ccccc23)CC1,-9,-0.6%,-1.8,-0.4,-6,1
O=c1[nH]c(=O)c2[nH]c(=S)[nH]c2[nH]1,2,1.9%,2.7,1.7,-10,-18
CN1CCN(Cc2nc3ccccc3c(=O)n2Cc2nc(-c3ccc([N+](=O)[O-])cc3)cs2)CC1,2,-1.2%,?,-0.7,-19,-23
CC(C)C(=O)Nc1ccc(NC(=O)c2ccccc2Cl)nc1,3,-0.2%,0.2,-0.4,-5,4
CC(C)c1ccc(-c2c(C#N)c(N)nc(SCC(=O)N3CCCCCC3)c2C#N)cc1,-11,9.5%,-0.8,3.2,7,-1
CCCNC(=O)CN(C)C(=O)c1n[nH]c2ccccc12,24,-2.6%,-0.2,-1.0,3,0
C=CCC1CCCCC12NC(=O)N(c1ccccc1)N2 (stereo unspecified),5,3.1%,?,-0.3,0,3
N#C/C=C\Oc1ccc(Cl)cc1N,-3,1.0%,3.9,1.0,16,-3
O=C1CCC(C(=O)N2CCC(CCO)CC2)CN1Cc1ccc(Cl)cc1 (stereo unspecified),8,0.7%,-1.6,0.0,6,2
Cc1cc(C)c(CN2CCN(CCCn3ccc(NC(=O)OCc4ccccc4)nc3=O)CC2)c(C)c1,1,-1.3%,-1.6,-1.3,-1,-1
CCCCOC(=O)C1=C(C)NC2(O)c3ccccc3C(=O)C12O (stereo unspecified),21,3.7%,-2.5,-0.6,8,0
COc1ccc(/C=C/C(=O)ONC2=NCCCCC2)cc1OC,-2,7.1%,8.8,-0.4,9,-18
CCc1c(C)nc2c(C#N)c(C)[nH]n2c1=O,5,-0.9%,-2.1,-0.8,-30,-29
COC(=O)c1[nH]c2ccccc2c1NC(=O)CN1CCCCCC1,48,-0.3%,-0.3,-0.5,-2,-1
COc1ccccc1CNC(=O)COn1nnc2ccc(S(=O)(=O)N3CCOCC3)cc21,15,-0.7%,-0.4,0.0,7,9
Cc1ccc(/C=C/C(=O)NC(=S)Nc2ccccc2C(=O)NC2CCCCC2)cc1,-5,.,-1.6,0.5,10,4
CC[n+]1c(/C=C/c2c[nH]c3ccccc23)ccc2cc(C)ccc21,-10,4.4%,-2.7,11,?,16
CN(C1CCS(=O)(=O)C1)S(=O)C12CC3CC(CC(C3)C1)C2 (stereo unspecified),-13,-0.5%,-2.9,-0.8,3,9
O=C(Cc1c(F)cccc1Cl)N(Cc1ccccc1)c1ccccn1,-2,1.0%,-1.3,2.3,7,1
COc1ccc(OCc2nnc(SCC(=O)NCC3CCCO3)n2N)cc1 (stereo unspecified),-18,-0.5%,2.4,1.0,-9,14
COc1ccc2c(c1)CCc1c(C(=O)N3CCOCC3)noc1-2,10,-4.3%[38.3 µM],-0.4,-0.7,-3,-1
Cc1cc(C(=O)N/N=C/c2c(C)nn(-c3ccccc3)c2C)c(C)o1,53,-0.3%,2.3,3.0,-23,-4
CCOC(=O)/C=C1/N(C)c2ccccc2C1(C)C,-2,5.7%,1.1,2.2,-5,56
Cc1ccc(NC(=O)NC(=O)COc2c(F)c(F)cc(F)c2F)c(C)c1,-1,13%,-1.3,1.0,6,1
OCCNNC(=S)NC1CC2C=CC1C2 (stereo unspecified),8,-1.1%,0.0,-0.1,-2,-16
Cc1nc2sc(C(c3cccc(F)c3)N3CCCCC3)c(O)n2n1 (stereo unspecified),-19,1.0%,0.1,0.2,9,4
CC1(c2ccccc2)NC(=O)N(Cc2ccc([N+](=O)[O-])cc2)C1=O (stereo unspecified),-3,-0.1%,-0.2,0.0,8,-13
CC(=O)c1ccc(N2CCN(C(=O)c3ccco3)CC2)c(F)c1,5,-1.5%,0.6,-0.9,7,3
N#Cc1c(-c2ccccc2)cc(-c2ccccc2)nc1SCc1nnc(-c2ccccc2)o1,7,0.8%,-3.1,0.1,40,17
CCCN(C(=O)COc1ccc(Cl)cc1Cl)c1c(N)n(Cc2ccccc2)c(=O)[nH]c1=O,11,3.4%,-3.8,1.3,.,0
COCCNC(=O)C(=O)NCC1OCCN1S(=O)(=O)c1cccs1 (stereo unspecified),11,1.4%,1.8,0.7,-5,-1
Cc1ccc2c(c1)=C(c1sc(N(C)c3ccc(O)cc3)nc1O)C(=O)N=2,32,4.1%,-7.2,-0.2,.,4
O=C(c1ccc(Br)o1)N1CCN(c2ccc3nnc(-c4ccccc4)n3n2)CC1,-3,2.2%,1.2,2.1,?,?
COc1ccc(-c2nnc(N)s2)cc1,7,0.4%,-0.8,-0.9,-3,2
O=C(C1=C(O)C(=O)N(Cc2cccnc2)C1c1ccccn1)c1cccs1 (stereo unspecified),-11,-1.8%,1.5,0.3,-14,-3
Nc1no[n+]([O-])c1-c1ccccc1,-12,-1.0%,0.8,-0.1,-5,3
CC1(C(=O)NCC2CC2)Cc2c(-c3ccccc3)ccnc2O1 (stereo unspecified),-21,2.5%,-6.1,-0.4,-1,11
CCCNC(=O)C1CC(=O)N(c2ccc(OCC(=O)Nc3cc(C)cc(C)c3)cc2)C1 (stereo unspecified),-4,0.7%,-6.9,1.0,-14,8

# Part of the list above, set out differently:
Structure | TRPML1 inh | PINK1 expr mod | D2 agonist | TRPML1 agonist | CtBP-E1A inh | Six1-Eya2 blk
N#Cc1c(-c2ccccc2)cc(-c2ccccc2)nc1SCc1nnc(-c2ccccc2)o1 | 7 | 0.8% | -3.1 | 0.1 | 40 | 17
CCCN(C(=O)COc1ccc(Cl)cc1Cl)c1c(N)n(Cc2ccccc2)c(=O)[nH]c1=O | 11 | 3.4% | -3.8 | 1.3 | . | 0
COCCNC(=O)C(=O)NCC1OCCN1S(=O)(=O)c1cccs1 (stereo unspecified) | 11 | 1.4% | 1.8 | 0.7 | -5 | -1
Cc1ccc2c(c1)=C(c1sc(N(C)c3ccc(O)cc3)nc1O)C(=O)N=2 | 32 | 4.1% | -7.2 | -0.2 | . | 4

# Screening results as filed in PubChem.
